Screening results as filed in PubChem BioAssay.
Prx2 Sm inh: Schistosoma Mansoni Peroxiredoxins (Prx2); S. mansoni Prx2 activity coupled to TGR/GSH (TGR is thioredoxin glutathione reductase), NADPH fluorescence loss, qHTS; some inactives read as strong as hits; Potency, µM; 0.07% of 65,000 active; AID 448, 2006; active means full or partial inhibition curve with a strong effect at the top dose; inconclusive means weaker partial or single-point curve; inactive means no accepted curve; further: series up to 57 µM; many of its hits are not listed in these tables
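Prx2 activity was followed as the loss of NADPH fluorescence (ex 365/em 450 nm), read every 30 sec for 8 min after H2O2 start. The enzyme mix (50 nM Prx2, 25 nM TGR, GSH, NADPH; pH 7.4 phosphate buffer) was incubated with compound for 15 min at room temperature first.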
Anthrax LT inh: qHTS Assay for Anthrax Lethal Toxin Internalization. Potency, µM (series often up to 40 µM), for the others: at the top dose activity change, negative = inhibition, most hits filed as inhibitors. Cells, anthrax lethal toxin internalization, FRET ratio (460/530). 0.67% of 70,000 active; active = well fitted falling ratio curve with the 530 nm signal flat; inconclusive = other ratio curves, or a change in one channel alone; inactive = flat curves in the ratio and both channels; the % refers to the ratio; further: on the % scale 0 is the no-effect control and ±100 the full control effect; nearly all actives have a fitted effect of over 50% in size; tested in ME-180 cells; beta-lactamase reporter
The depositor's hits bear a star; ? = inconclusive; / = no result given; & = joins results of further samples; [ ] = remark or other dose. Potency means the concentration at half of the fitted maximal effect. This is a subset, so the mix of outcomes need not match the whole.

smiles,Prx2 Sm inh,Anthrax LT inh
Cc1ccc(-c2cnc(NC(=O)CCC(=O)N3CCCCC3)n2C)cc1,>57,?
CCOC(=O)[C@@H](O)Cc1cnc2ccccc2n1,>57,7%[8 µM]
C#CCN(C)CCCOc1ccc(Cl)cc1Cl,>26&>57,?
Cc1ccc(C(=O)Nc2ccccc2N2CCN(C(=O)C(C)C)CC2)cc1C,>57,8%
Cc1noc(C)c1CSc1nc2ccccc2n1C,>57,3%
O=C(Oc1nsnc1N1CCCCC1)N1CCOCC1,>57,?
Cc1cccc(Nc2nc(N)nc(CN3CCN(Cc4ccc5c(c4)OCO5)CC3)n2)c1,>57,7%
COc1ccc(/C(O)=C2/C(=O)C(=O)N(CCCC(=O)O)C2c2ccc(OC)c(OC)c2)cc1 (stereo not given),>57,0%

Other structures.
smiles,Prx2 Sm inh,Anthrax LT inh
CCCc1[nH]nc2c1C(CCc1ccccc1)C(C#N)=C(N)O2 (stereo not given),>57,?
CC(NC(=O)c1cc2c(=O)n(C)c3ccccc3c2n1C)c1ccc2c(c1)OCCO2 (stereo not given),>57,3%
CCOC(=O)NC(Nc1nc2ccccc2s1)(C(=O)OCC)C(F)(F)F (stereo not given),>57,-2%
O=C(NCCc1cn2ccsc2n1)C1CCCCC1,>57,19%
Cc1cccc(C)c1NC(=O)C(NC=O)c1ccc(N(C)C)cc1 (stereo not given),>57,4%
O=C1[C@@H]2Cc3ccccc3CN2C(=O)N1c1cccc(F)c1,>57,3%
CCOC(=O)c1nn(-c2ccccc2)c(=O)c2c(N)scc12,>57,2%
Cc1cc(C(F)F)n2nc(C(=O)Nc3ccc(S(=O)(=O)N4CCCC4)cc3)nc2n1,>57,4%

(list continues)
smiles,Prx2 Sm inh,Anthrax LT inh
COc1ccc(C2C(C(=O)Nc3cccnc3)=C(C)Nc3nc(-c4cccs4)nn32)cc1OC (stereo not given),>57,10%
CCNc1ncc2nc(-c3ccc(F)cc3)c(=O)n(Cc3ccc(F)cc3)c2n1,>57,1%
COc1ccc(N2C(=O)CCC(C(=O)NCCN3CCOCC3)C2c2ccc(OC)c(OC)c2)cc1 (stereo not given),>57,6%
O=C(O)CC1(Cc2nc(-c3cccs3)no2)CCCC1,>57,-6%
O=C(CCCn1c(SCC(=O)c2ccc(F)cc2)nc2ccccc2c1=O)NCc1ccco1,>57,8%
O=C(NCCCN1CCCCCC1)C1CC(=O)N(C2CCCC2)C1 (stereo not given),>57,-3%
COc1ccc(Nc2cc(C(=O)NCCCN3CCN(C)CC3)c3ccccc3n2)c(OC)c1,>57,-10%
O=C(Cn1cnc2c(nnn2Cc2ccccc2)c1=O)c1ccc(Cl)cc1,>57,1%

Additional results follow:
smiles,Prx2 Sm inh,Anthrax LT inh
O=c1[nH]cnc2[nH]cc(CN3CCCCC3)c12,>57,-7%[8 µM]
CN(N=O)C(=O)N[C@H]1[C@@H](O)[C@H](O)[C@H](CO)O[C@@H]1O,>57,?
Cc1ccccc1Nc1nc(N)nc(CN2CCN(c3ccccn3)CC2)n1,>57,-5%
CCCc1cc(=O)n2[nH]c(NCc3c(Cl)cccc3Cl)nc2n1,>57,?
Cc1ccc(-c2nnn(CC(=O)NCc3ccccc3)n2)c(-n2cnnn2)c1,>57,2%
Cc1ccc(C(=O)Nc2ccc(N3CCOCC3)cc2)cc1,/,-3%
COc1ccc(CC(=O)NCc2ccccc2)cc1S(=O)(=O)N1CCOCC1,>57,2%
CCCc1ncc(C(O)c2cccc3ccccc23)n1C (stereo not given),>57,-5%

Other entries.
smiles,Prx2 Sm inh,Anthrax LT inh
CC(=O)Nc1cccc(NC(=O)c2c(-c3ccccc3)noc2C)c1,>57,21%
CCCc1nnc(NC(=O)CN2CCOCC2)s1,>57,-8%
Cc1cccc(-n2nc3c(c2NC(=O)c2ccc(Br)o2)CSC3)c1,>57,?
Cn1c(=O)oc2cc(S(=O)(=O)N3CCN(c4ccccc4)CC3)ccc21,>57,-7%
CCN[C@@H]1CN(CCCOC)S(=O)(=O)c2sc(S(N)(=O)=O)cc21,>57,4%[3.58 µM]
O=c1c2nnn(Cc3ccc(Cl)cc3)c2ncn1Cc1ccc(F)cc1,>57,-15%
CC1=C(C(=O)OCc2ccccc2)C(c2ccco2)n2ncnc2N1 (stereo not given),>57,-9%
Cn1c(SCC(=O)NCc2ccccc2)nnc1C1CC1,>57,-10%

Further records follow.
smiles,Prx2 Sm inh,Anthrax LT inh
CCOc1ccc(C2C(C#N)=C(N)N3C(=C2C#N)Sc2ccccc23)cc1 (stereo not given),/,?
CS(=O)(=O)N(CCc1ccccc1)CC(=O)Nc1ccc2c(c1)OCO2,>57,-19%
O=C(c1cccc(COCC(F)(F)C(F)F)c1)N1CCN(c2ccccc2)CC1,>57,-7%
CCN(CC)C(=O)C1CCCN(Cc2cccc(F)c2)C1 (stereo not given),/,-26%
Cn1cc(CNC(=O)C2c3ccccc3Oc3ccccc32)cn1,>57,?
COc1ccc(CN2CCN(c3cc(C)nc4c5c(C)cc(C)nc5nn34)CC2)cc1F,>57,?
Cc1cccc(-n2c(O)c(C=Nc3ccc4c(c3)OCO4)c3ccccc3c2=O)n1,>57,15%
CCc1cccc(NC(=O)c2snc3c(=O)[nH]cnc23)c1,>57,0%

Following part.
smiles,Prx2 Sm inh,Anthrax LT inh
O=C(NC1CCCCC1)c1ccc(CNc2ccccc2)o1,>57,?
O=S(=O)(N1CCOCC1)n1nnc2ccccc21,>57,5%
CCOc1ccccc1NC(=O)CC1Nc2cc(C)c(C)cc2NC1=O (stereo not given),/,?
C=C[C@]12CN(C)[C@H]3C1[C@@]1(C(=O)Nc4ccccc41)[C@H]1C[C@H]2[C@H]3CO1,>57,5%[3.58 µM]
COc1cccc(NC(=O)CNC(=O)c2ccccc2)c1,>57,-15%
CC(=O)c1cccc(NC(=O)c2ccc(N(C)S(C)(=O)=O)cc2)c1,>57,6%
CCOCCOCC,/,-3%
Cc1ccccc1-n1c(SCc2cc(=O)n3ccccc3n2)nc2[nH]ncc2c1=O,>57,11%

Other results
smiles,Prx2 Sm inh,Anthrax LT inh
COC(=O)CN1C(=O)CC(C)(C)S(=O)c2ccccc21 (stereo not given),>57,2%
COc1cccc(NC(=O)Cc2nnc(SCCOc3ccccc3)n2C)c1,>57,?
c1ccc(-n2nnnc2OCCOc2nnnn2-c2ccccc2)cc1,>57,/
CC1(C)SCC2C(=O)N3C(CSC3(C)C)C(=O)N21 (stereo not given),/,4%
Cc1ccc(CSc2nnc(-c3cccs3)n2C)cc1,>57,13%
CCN(CC(=O)N1CCOCC1)S(=O)(=O)c1ccc(C)cc1,>57,13%
CSC(=Nc1ccccc1)c1c(O)n(C)c(=O)n(C)c1=O,>57,?
COc1ccc(-c2cc(-c3c(O)c(OC)c4occc4c3OC)[nH]n2)cc1OC,>57,?

Additional structures follow.
smiles,Prx2 Sm inh,Anthrax LT inh
CCC(C)c1c(O)nc(SCC(=O)c2ccccc2)[nH]c1=O (stereo not given),/,11%
Cc1ccc(SCC(=O)N2CC(C)OC(C)C2)cc1 (stereo not given),>57,10%
CSc1ccc(Cn2nnc(C(=O)NCc3ccccc3)c2N)cc1,>57,?
N/C(CC(=O)Nc1cc(C(F)(F)F)ccc1Cl)=N\O,>57,-5%[8 µM]
Oc1ccccc1C1=NCCNC(C(F)(F)C(F)F)=C1,>57,/
c1ccc(COc2cccc(CN3CCN(c4ccccn4)CC3)c2)cc1,>57,-12%
CNC(=O)CSc1nnc(COc2ccc(Cl)cc2)n1CCOC,>57,-1%
CCC(C)NC(=O)c1ccc(NC(=O)C2CCCO2)cc1 (stereo not given),>57,-5%

Further structures follow.
smiles,Prx2 Sm inh,Anthrax LT inh
Cc1cccn2c(=O)c3cc(C(=O)Nc4ccc(N(C)C)cc4)n(C)c3nc12,>57,0%
COc1ccccc1-c1nnc(SCc2ccccn2)n1C,>57,-1%
CCOC(=O)c1c(C)[nH]c2cc(Br)c(O)cc12,>57,-23%
CC1(C)CC(=O)C2=C(C1)N(CC1CCCO1)C(=O)NC2(C(F)(F)F)C(F)(F)F (stereo not given),>57,-3%
CC1Oc2ccccc2N(CC(=O)N2CCCc3ccccc32)C1=O (stereo not given),>57,-6%
COc1ccc(NC2CC(=O)N(C(C)C)C2=O)cc1 (stereo not given),>57,5%
CCc1nnc(NC(=O)CSc2nnc(-c3ccc(OC)cc3)n2C)s1,>57,5%
CCCNC(=O)c1cccc(COCC(F)(F)C(F)F)c1,>57,-8%

Remaining list, next part:
smiles,Prx2 Sm inh,Anthrax LT inh
CCOc1ccc2[nH]c(=O)c(CN(Cc3ccco3)C(=O)c3cccc(F)c3)cc2c1,>57,-6%
CCOP(=O)(C#CC(C)(C)C)C1(O)CCCCC1 (stereo not given),>57,16%
CC(C)C(=O)N1CCN(c2ccc(NC(=O)c3ccc(Br)o3)cc2)CC1,>57,3%
CCOC(=O)c1c(N)nn(C(=O)C(C)C)c1-c1ccccc1,>57,?
Cc1ccc(-n2c(Cc3cccn3C)nnc2SCC(=O)Nc2ccc3c(c2)OCO3)cc1,>57,-3%
CCN(CC)CCOC(=O)C1(c2ccc([N+](=O)[O-])cc2)CCCC1,>57&>57,-5%
CCOC(=O)OCC1OC(C#Cc2ccc(Br)cc2)C=CC1OC(=O)OCC (stereo not given),/,7%[8 µM]
CCCC[C@@H]1C[C@H]1C(NC(=O)c1cccs1)c1ccc(Cl)cc1 (stereo not given in full),>57,?

Further records follow:
smiles,Prx2 Sm inh,Anthrax LT inh
COc1ccccc1CNc1ccnc(-c2ccccc2Cl)n1,>57,-27%
CN1CCN(S(=O)(=O)c2ccc(NC(=O)c3cccs3)cc2)CC1,>57,?
COC(=O)c1ccc(NC(=O)CSc2nnc(-c3ccncc3)n2C)cc1,>57,?
c1csc(CNc2nc(-c3ccoc3)nc3ccccc23)c1,>57,?
O=C(Cn1nnc2c(cnn2-c2ccccc2)c1=O)N1CCN(c2ccccc2F)CC1,>57,-23%
CCCCNC(=O)CC1N=C2c3ccccc3N=C(SCC(=O)Nc3ccc(OC)cc3)N2C1=O (stereo not given),>57,-16%
COC(OC)[C@@H](C)[C@H](OC)[C@@H](C)[C@H](OC)c1ccccc1,/,1%[8 µM]
O=C(Nc1ccc(Nc2ccc3c(c2)C(=O)c2ccccc2C3=O)c2c1C(=O)c1ccccc1C2=O)c1ccccc1,>57,-6%[8 µM]

(more compounds)
smiles,Prx2 Sm inh,Anthrax LT inh
CCNS(=O)(=O)c1ccc(NC(=O)Cn2nc(C(F)(F)F)cc2C)cc1,>57,-9%
CC(=O)NCCOc1nc(N(C)C)nc(N2CCOCC2)n1,>57,-2%
CC(C)CC1NC2(C(=O)N(C)c3ccccc32)C2C(=O)N(C(C)C)C(=O)C12 (stereo not given),>57,-9%
CCCSCCCNC(=O)CC1Oc2ccccc2NC1=O (stereo not given),>57,-1%
COc1cccc(-c2nc(N(C)C)c3ccccc3n2)c1,>57,?
COc1ccc(C(=O)/C=C/Nc2cc(C)on2)c(OC)c1,>57,-6%
O=C(CCS(=O)(=O)c1ccc(Cl)cc1)Oc1ccc2c(c1)OCO2,>57,-1%
Cc1cc(C)n(-c2ccc(Cl)c(C(=O)OCC(=O)N3CCCCC3C)n2)n1 (stereo not given),>57,5%

One compound at a time, from the list above. Order of values: Prx2 Sm inh	Anthrax LT inh
`CC(NC(=O)c1cc2c(=O)n(C)c3ccccc3c2n1C)c1ccc2c(c1)OCCO2` (stereo not given) in the list: >57	3%
`O=c1[nH]cnc2[nH]cc(CN3CCCCC3)c12` in the list: >57	-7%[8 µM]
`CCOc1ccccc1NC(=O)CC1Nc2cc(C)c(C)cc2NC1=O` (stereo not given) in the list: /	?

Other structures follow:
smiles,Prx2 Sm inh,Anthrax LT inh
CCOC(=O)c1cnn(CCOC(=O)Cc2cccs2)c1NC(=O)Cc1cccs1,>57,3%
Oc1ccc(Nc2nc(N3CCCC3)c3ccccc3n2)cc1,>57,13µM*
CC(C)OCC(O)CN (stereo not given),>57,7%
O=C1/C(=C/c2ccccc2)Oc2ccccc21,/,-10%[8 µM]
O=C1OCCC1NC1=NCCC1 (stereo not given),>57,-3%
COc1ccc(NC(=O)COC(=O)c2cnccn2)cc1Cl,>57,17%
O=C(CSc1nnnn1-c1ccc2c(c1)OCO2)NCc1cccs1,>57,2%
CCCOn1nnnc1-c1ccccc1,>57,-26%

(cont.)
smiles,Prx2 Sm inh,Anthrax LT inh
Cc1cccc(Nc2nc3c(c(=O)n(C)c(=O)n3C)n2Cc2ccccc2)c1,>57,-7%
C=CCSc1nc(N)c2c(C)c(C)sc2n1,>57,-2%
CCOC(=O)C1=C(N)N(c2ccccc2Oc2ccccc2)C(=O)C1,?,-11%
CC(C)OC(=O)CSc1nnc(CNc2nc(-c3ccccc3)cs2)n1C,>57,?
CC(=O)OC[C@@H]1O[C@H](C/C=N\OCC[C@H]2C=C[C@H](OC(C)=O)[C@@H](COC(C)=O)O2)C=C[C@@H]1OC(C)=O,/,0%[8 µM]
